# NPYLR7 ag = mosquito NPYLR7 agonism; activation, % at 10 µM; HEK293T NPYLR7/Galpha15, GCaMP6s calcium fluorescence; 0.15% of 270,000 active; in the data active = activation above about 40%;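 also: 0% = vehicle and 100% = reference agonist at the receptor; some compounds past the cut are filed as inactive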
# NPYLR7 ag max-min = second read-out of NPYLR7 ag, no call of its own (marks repeat the call); activation, %; measured here: Max-Min RFU normalised activation; some inactives read as strong as hits;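 span of the calcium signal over five minutes; 0% = vehicle and 100% = native peptide agonist; compound fluorescence can raise it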
# An asterisk follows results filed as active; & = joins results of further samples. Some of the compounds tested. The share of hits here may be higher or lower than overall.
molecule | NPYLR7 ag | NPYLR7 ag max-min
CCOc1ccc(OCCN(CC)CC(O)c2ccc(C)cc2)cc1 (stereo not drawn) | -1.3 | -1.4
O=C(Nc1cc(F)cc2c1OCOC2)N1CCN(CCCOC(c2ccc(Cl)cc2)c2ccc(Cl)cc2)CC1 | 3.3 | 0.0
CC(C)C(=O)N1CCC(Nc2ccc(C#N)cc2C(F)(F)F)CC1 | 0.2 | 0.9
COCc1cnc2c(c1SCC(=O)Nc1cc(C)cc(C)c1)c(=O)n(C)c(=O)n2C | -0.6 | 3.4
COc1cccc(-c2cnc3c(NC=O)cc(-c4ccc(N(C)C)cc4)cn23)c1 | 12.8 | 5.3
Cc1nc(-c2ccsc2)sc1C(=O)NC(C)c1cccc(Cl)c1 (stereo not drawn) | -5.5 | -8.3
O=c1c(O[C@@H]2O[C@H](CO)[C@@H](O)[C@H](O)[C@H]2O)c(-c2ccc(O)c(O)c2)oc2cc(O)cc(O)c12 | -6.4 | -11.1
Cc1ccc(S(=O)(=O)N2CCN(c3ccc(Cl)c(Cl)c3)CC2)cc1 | -4.5 | -5.0
COCCn1c(C)cc(C=C2SC(=S)N(Cc3ccco3)C2=O)c1C | 5.4 | 4.9
CC(=O)c1ccc(C(=O)N2CCOC(CCCc3ccccc3)C2)cc1 (stereo not drawn) | 8.2 | -2.2
Cc1cc(C)c(C)c(S(=O)(=O)CC(=O)NCC(=O)N2CCCC2)c1C | -2.9 | 63.0
Cc1[nH]n(-c2ccccc2)c(=O)c1N=Nc1nccs1 | -7.1 | -11.3
O=[N+]([O-])c1cccc(C(Nc2nc3c(s2)CCCC3)c2ccc3cccnc3c2O)c1 (stereo not drawn) | -2.4 | -3.2
Cc1[nH][nH]c(=O)c1CC(=O)NCCn1c(C)cc2ccccc21 | -1.1 | -9.5
COc1ccccc1N(CC(F)(F)F)C(=O)COc1ccccc1C(N)=O | 7.3 | 3.5
Cc1ccc(NC(=O)CNCCOc2nonc2C)c(C)c1 | 4.2 | 2.0
CC(C)(CNC(=O)c1cc(Cl)c(Cl)[nH]1)S(C)(=O)=O | -1.2 | -1.2
Cc1ccccc1S(=O)(=O)NC(=O)C1(C)CCN1C(=O)C/C=C/c1ccccc1 (stereo not drawn) | 0.4 | 2.5
CC1CC(C(F)F)n2nc(C(=O)Nc3ccc(Br)cc3F)nc2N1 (stereo not drawn) | -13.4 | -19.6
Cc1ccccc1-n1nc(C(C)(C)C)cc1NC(=O)CN(Cc1ccccc1)C(=O)COCc1ccccc1 | -1.3 | 10.7
COCCCN(Cc1ccccc1C#N)Cc1cccn1Cc1ccccc1 | -4.0 | 10.0
CCOC(=O)c1csc(N)n1 | -2.5 | -5.0
CCN(CC)C(=O)N1CCN(C)CC1 | -3.0&-6.0&-3.5 | -6.9&-7.1&-4.2
CN(Cc1ccc(F)cc1)c1ccc(OCC(=O)N2CCN(c3ncc4ccccc4n3)CC2)nn1 | -10.3 | -8.5
COc1ccc(N2C(=O)CN(CCCc3ccccc3)C3CS(=O)(=O)CC32)cc1 (stereo not drawn) | 0.9 | 0.4
Cc1ccc(-c2cc(C(=O)O)n3nc(-c4ccccc4)cc3n2)cc1 | -4.6 | -2.4
COc1cccc(CNC(=O)c2cc(-c3cccs3)nc3cc(C)c(C)cc23)c1OC | 19.5 | 7.7
CCOc1ccc(-c2noc(-c3cc(-c4cccs4)[nH]n3)n2)cc1 | -15.3 | -22.5
COc1ccc(/C=N\n2cnnc2)cc1COc1c(Cl)cc(Cl)cc1Cl | -11.0 | -14.6
Cc1ccc(N2C(=O)CSC23C(=O)N(CC(=O)NCCc2ccccc2)c2ccccc23)cc1C (stereo not drawn) | 2.4 | 6.5

# Given with two lines to a compound: part of the list above.
# Under each structure: NPYLR7 ag, NPYLR7 ag max-min
CN(Cc1ccc(F)cc1)c1ccc(OCC(=O)N2CCN(c3ncc4ccccc4n3)CC2)nn1
    -10.3, -8.5
COc1ccc(N2C(=O)CN(CCCc3ccccc3)C3CS(=O)(=O)CC32)cc1 (stereo not drawn)
    0.9, 0.4
Cc1ccc(-c2cc(C(=O)O)n3nc(-c4ccccc4)cc3n2)cc1
    -4.6, -2.4
COc1cccc(CNC(=O)c2cc(-c3cccs3)nc3cc(C)c(C)cc23)c1OC
    19.5, 7.7
CCOc1ccc(-c2noc(-c3cc(-c4cccs4)[nH]n3)n2)cc1
    -15.3, -22.5
COc1ccc(/C=N\n2cnnc2)cc1COc1c(Cl)cc(Cl)cc1Cl
    -11.0, -14.6

# Following part
molecule | NPYLR7 ag | NPYLR7 ag max-min
O=C(COc1ccc(Cl)c2ccccc12)Nc1ncccc1O | -2.4 | -3.2
O=C(CN(Cc1ccccc1)S(=O)(=O)c1ccc(Cl)cc1)N1CCNC1=O | -0.8 | 1.3
N#CC1(N)C2CC3CC(C2)CC1C3 (stereo not drawn) | 4.7 | 5.5
N#Cc1ccsc1N1CCC(Br)C1=O (stereo not drawn) | -6.9 | -8.0
COc1cc(NC(=O)c2cnn3c(C(F)(F)F)cc(-c4ccco4)nc23)c(OC)cc1Cl | -13.6 | -4.0
CC1CCN(Cc2nnnn2CC(=O)NCc2csc(-c3cccs3)n2)CC1 | 17.6 | 12.7
COc1ccc(OC)c(NC(=O)Nc2ccc(Nc3ccc(-n4cccn4)nn3)cc2)c1 | 2.6 | -0.1
O=c1[nH]nc(-c2nnc3n2-c2ccccc2SC3)c2ccccc12 | -0.3 | -0.8
Cc1ccc(-n2c(-c3ccc(F)cc3)cc(C(=O)NCCCN3CCOCC3)c2C)cc1 | -8.8 | 4.0
CN(Cc1cnn(C)c1)Cc1nc(COc2ccccc2)no1 | 1.2 | -1.5
Cc1nnc(SCC(=O)c2cc(C)n(C3CC3)c2C)s1 | -1.8 | 4.5
O=C(c1csc(-c2cccs2)n1)N1CCC2(CC1)C(=O)NCN2c1ccccc1 | -11.2 | -17.7
Cc1ccc(C2=NN(c3ccc(C=O)cc3)CC2)cc1 | -4.7 | -9.2
COc1ccc(C(=O)Nc2cc(-c3onc4c3CCCC4)ccc2Cl)cc1C(F)(F)F | 20.2 | 29.5
COc1ccc(C(=O)N(Cc2ccccc2)C2CCC(NC(=O)C3CCN(C(=O)c4ccc(F)cc4)CC3)CC2)cc1 (stereo not drawn) | -13.6 | -1.9

# Given with two lines to a compound: 4 of the compounds above.
# The line under a structure holds: NPYLR7 ag, NPYLR7 ag max-min
- O=C(COc1ccc(Cl)c2ccccc12)Nc1ncccc1O
  -2.4, -3.2
- COc1cc(NC(=O)c2cnn3c(C(F)(F)F)cc(-c4ccco4)nc23)c(OC)cc1Cl
  -13.6, -4.0
- O=c1[nH]nc(-c2nnc3n2-c2ccccc2SC3)c2ccccc12
  -0.3, -0.8
- N#Cc1ccsc1N1CCC(Br)C1=O (stereo not drawn)
  -6.9, -8.0

# Compounds from the list above containing an NH in an aromatic ring, in the order listed:
molecule | NPYLR7 ag | NPYLR7 ag max-min
Cc1[nH]n(-c2ccccc2)c(=O)c1N=Nc1nccs1 | -7.1 | -11.3
Cc1[nH][nH]c(=O)c1CC(=O)NCCn1c(C)cc2ccccc21 | -1.1 | -9.5
CC(C)(CNC(=O)c1cc(Cl)c(Cl)[nH]1)S(C)(=O)=O | -1.2 | -1.2
CCOc1ccc(-c2noc(-c3cc(-c4cccs4)[nH]n3)n2)cc1 | -15.3 | -22.5
O=c1[nH]nc(-c2nnc3n2-c2ccccc2SC3)c2ccccc12 | -0.3 | -0.8

# (further entries)
molecule | NPYLR7 ag | NPYLR7 ag max-min
CCN(Cc1ccccc1)C(=O)CCN1[C@@H]2CC[C@H]1CC(O)C2 (stereo partly drawn) | 4.0 | -3.1
COc1ccc(-c2cn3c4ccccc4nc3n2CCNC(C)(C)C)cc1 | -4.0 | -11.8
COC(=O)C1=C(O)/C(=C\c2ccc([N+](=O)[O-])cc2)SC1=Nc1ccccc1OC | -5.5 | 1.3
CCc1nc2ccc(C(=O)N3CCCCC3)cn2c1N(C)CCCc1ccccc1 | 0.3 | 12.3
CN(CCc1ccccc1)C1CCCN(C(=O)c2c[nH]c(=O)cc2O)C1 (stereo not drawn) | 7.7 | 5.6
CN(Cc1ccncc1)CC1CCCN(CCc2cccc(C(F)(F)F)c2)C1 (stereo not drawn) | 4.2 | -2.3
CCOC(=O)[C@@H]1CN(C(=O)CC2CCCC2)[C@H]2c3cccc(C)c3O[C@@H]12 | -0.4 | 9.9
C=Cc1ccc(Cn2c(C)c(C(=O)N(C)Cc3cccc(OC)c3)sc2=O)cc1 | 10.3 | 6.9
Cc1ccc(S(=O)(=O)c2nc(C)oc2NCc2ccccc2)cc1 | 2.1 | -0.5
Cc1cc(NC(=O)c2nc3ccccc3s2)n(-c2ccccc2)n1 | 1.6 | 4.2
Cn1c2ccccc2n2c3ncccc3c(=O)c(C#N)c12 | -4.2 | -4.6
Nc1c(C(=O)CSc2ncccn2)c(=O)[nH]c(=O)n1C1CC1 | -0.4 | 5.0
CCc1ccc(NC(=O)CS(=O)(=O)c2ccc(Cl)cc2)cc1 | -21.5 | -22.9
CC(C)Cc1nnc2sc(C3CC(=O)N(c4cccc(F)c4)C3)nn12 (stereo not drawn) | -0.1 | -0.5
COCCNC(=O)c1nc(Cn2c(C(F)(F)F)nc3ccccc32)no1 | 3.2 | 0.3
